Screening data from PubChem BioAssay.
Calb biofilm kill = mixtures killing C. albicans biofilm; inhibition, % at 7.6 µM; AID 1242; 0.02% of 120,000 active; C. albicans biofilm persisters + clotrimazole, fluorescence viability; primary screen in compound mixtures of four per well;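 active means inhibition above 30.3% in the primary screen of four-compound pools, then above 30% when the compound was retested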;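 further: compounds exposed to preformed 24 h biofilms for 48 h; the number belongs to the whole pool; some results filed as inactive read as strong as hits; inactives centre near 12; 0% = biofilm with clotrimazole alone and 100% = kill control; retested singly at about 60 µM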
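Probe or stimulus – Clotrimazole 50 µg/mL co-treatment · System – C. albicans biofilms · Schedule – 24 h biofilm formation, then 48 h compound exposure, 37 °C · Evaluation – percent inhibition of biofilm viability · Technique – 2-h Alamar Blue fluorescence, 535/590 nm excitation/emission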
Active calls of the source: *. The list is partial. The share of hits here may be higher or lower than overall.

Start of the listing, in advance:
SMILES	Calb biofilm kill
CCN(C(=S)Nc1cccnc1)c1ccccc1	21
COc1ccccc1Nc1nc(Cl)c(C=O)s1	5
O=C(NCc1ccccc1Cl)C1CCN(S(=O)(=O)N2CCOCC2)CC1	14
C=CCN1C(=O)CN=C1Nc1ccc(F)cc1	7
COc1ccc2c(c1)C(=O)[C@@H](OC(=O)NCc1ccc3c(c1)OCO3)[C@H](c1ccc(OC)c(Br)c1)O2	11
NC(=S)N/N=C/C=C/c1ccccc1	19
O=C(CCn1c(=S)[nH]c2ccccc2c1=O)NCCc1ccc(Cl)cc1	16
Cc1ccc(C(=O)Nc2nc(N)n(-c3ccccc3)n2)cc1	24
COc1ccc(C)cc1NC(=O)COC(=O)c1ccc(OCc2ccc(Cl)cc2Cl)c(OC)c1	-3
CC(=O)c1cccc(N/C=C\c2nnnn2-c2ccc(F)cc2)c1	4
CCC(=O)Nc1nc(C)c(C(=O)NC2CCCCC2)s1	17
CN(C)c1ccc(/C=N/NC(=O)COc2ccccc2)cc1	7
CC(=O)Nc1ccc(OS(=O)(=O)c2ccc(C)cc2C)cc1	9
CCCCOCC1CC(CC#CCN2CCCCC2)C(=O)O1 (stereo not drawn)	-6
Cc1cc(C)n(CC(C)NCc2c(C(=O)N3CCOCC3)nc3c(C)cccn23)n1 (stereo not drawn)	24
Cc1cc(N2CCCC2)nc2ccc(NC(=S)NCCCOC(C)C)cc12	7
OCc1cnc(SCc2ccccc2)n1Cc1ccccc1	15
Cc1ccc(SCCC(=O)N/N=C/c2ccccc2O)cc1	10
COc1ccc(NC(=O)Cc2c(F)cccc2Cl)c(OC)c1	39

The listing, from the first entry:
SMILES	Calb biofilm kill
CCN(C(=S)Nc1cccnc1)c1ccccc1	21
COc1ccccc1Nc1nc(Cl)c(C=O)s1	5
O=C(NCc1ccccc1Cl)C1CCN(S(=O)(=O)N2CCOCC2)CC1	14
C=CCN1C(=O)CN=C1Nc1ccc(F)cc1	7
COc1ccc2c(c1)C(=O)[C@@H](OC(=O)NCc1ccc3c(c1)OCO3)[C@H](c1ccc(OC)c(Br)c1)O2	11
NC(=S)N/N=C/C=C/c1ccccc1	19
O=C(CCn1c(=S)[nH]c2ccccc2c1=O)NCCc1ccc(Cl)cc1	16
Cc1ccc(C(=O)Nc2nc(N)n(-c3ccccc3)n2)cc1	24
COc1ccc(C)cc1NC(=O)COC(=O)c1ccc(OCc2ccc(Cl)cc2Cl)c(OC)c1	-3
CC(=O)c1cccc(N/C=C\c2nnnn2-c2ccc(F)cc2)c1	4
CCC(=O)Nc1nc(C)c(C(=O)NC2CCCCC2)s1	17
CN(C)c1ccc(/C=N/NC(=O)COc2ccccc2)cc1	7
CC(=O)Nc1ccc(OS(=O)(=O)c2ccc(C)cc2C)cc1	9
CCCCOCC1CC(CC#CCN2CCCCC2)C(=O)O1 (stereo not drawn)	-6
Cc1cc(C)n(CC(C)NCc2c(C(=O)N3CCOCC3)nc3c(C)cccn23)n1 (stereo not drawn)	24
Cc1cc(N2CCCC2)nc2ccc(NC(=S)NCCCOC(C)C)cc12	7
OCc1cnc(SCc2ccccc2)n1Cc1ccccc1	15
Cc1ccc(SCCC(=O)N/N=C/c2ccccc2O)cc1	10
COc1ccc(NC(=O)Cc2c(F)cccc2Cl)c(OC)c1	39
COC(=O)C1=C(C)Nc2nc(SCc3ccccc3)[nH]c(=O)c2C1c1cccs1 (stereo not drawn)	16
Cn1c(CNc2ccc(Cl)cc2)nnc1SCCN1CCCCC1	16
Cc1ccccc1-n1nc(CSc2nc3ccccc3[nH]2)c(-c2ccccc2)c1N	19
O=C(CN1CCCC1)N1c2ccccc2Sc2ccc(C(F)(F)F)cc21	7
O=C(Cn1nnc2ccccc21)Nc1ccccc1[N+](=O)[O-]	16
O=C(c1cnccn1)N1CCc2c([nH]c3ccccc23)C1c1cccc(Cl)c1 (stereo not drawn)	19
CC/C(=N\NC(=O)C1CC1)c1cccc(Cl)c1	21
O=C(NNC(=O)C1CC2CCC1C2)c1sc2ccccc2c1Cl (stereo not drawn)	1
NC(=O)CNc1n[nH]c(=S)[nH]c1=O	10
Fc1ccc(-c2nnc3n2CCCCC3)cc1	-2
COc1ccc(/C=C/C(=O)Oc2cc(O)cc(O)c2)cc1	18
CCOc1ccc2nc(Cl)c(C3CC(c4ccccc4)=NN3C(=O)c3cccs3)cc2c1 (stereo not drawn)	14
CO/N=C/C=C1/N(C)c2ccccc2C1(C)C	10
CC(=O)Nc1ccc(NC(=O)C(C)OC(=O)CNC(=O)c2sc3ccccc3c2Cl)cc1 (stereo not drawn)	12
Cc1nn(Cc2ccc(Cl)cc2)c(C)c1NC(=O)/C=C/c1cnn(C)c1	7
C=CC[C@@H]1C=C[C@H](O/N=C/[C@@H](NS(=O)(=O)c2ccc(C)cc2)[C@H](C)/C=C/CC(=O)OC)[C@@H](CO)O1	8
COc1ccc(CC2(CO)CCN(Cc3ccc(OC(F)(F)F)cc3)CC2)cc1	14
COC(=O)c1sc(-c2cccs2)cc1N	12
COc1ccc(NC(=O)N2CCC(Cc3ccccc3)CC2)cc1	7
COc1ccc(Cl)cc1NC(=O)c1cc(-c2ccc(C)cc2O)n[nH]1	11
COc1ccc(S(=O)(=O)N(C)c2ccc(C(=O)NC3CCCC3)cc2)cc1	10
C=CCN1CCN(C(c2ccccc2OC)c2nnnn2C(C)(C)C)CC1 (stereo not drawn)	8
CC(C)=CCc1c(O)c(CC=C(C)C)c2c(c1O)C(=O)CC(c1ccc(O)cc1)O2 (stereo not drawn)	23
Cn1c(SCc2ccccc2)nc(C(F)(F)F)cc1=O	-7
CCC(C)C(=O)Nc1ccc([N+](=O)[O-])cc1OC (stereo not drawn)	5
CCOC(=O)c1c(-c2ccccc2)oc2ccc(OCC)cc12	11
Cc1cc(C(=O)N[C@H](c2ccccc2)[C@@]2(C)C[C@@H]2[C@@H](C)C(=O)Nc2ccc3ccccc3c2)n(C)n1	15
O=C(CSc1ccc(Cl)cc1)Nc1ccccc1N1CCN(C(=O)c2ccc(Cl)cc2)CC1	-8
CCOC(=O)Cc1csc(NS(=O)(=O)c2ccc(Br)cc2)n1	7

For convenience, some entries already given:
SMILES	Calb biofilm kill
Cc1cc(C(=O)N[C@H](c2ccccc2)[C@@]2(C)C[C@@H]2[C@@H](C)C(=O)Nc2ccc3ccccc3c2)n(C)n1	15
O=C(CSc1ccc(Cl)cc1)Nc1ccccc1N1CCN(C(=O)c2ccc(Cl)cc2)CC1	-8

(listing goes on)
SMILES	Calb biofilm kill
CC1(C)OC(=O)C(=NNc2ccccc2[N+](=O)[O-])C(=O)O1	15
O=C(c1ccc(Cl)c(S(=O)(=O)N2CCc3ccccc3C2)c1)N1CCN(c2ccccc2)CC1	11
COc1cccc(/C=C/C(=O)Nc2ccc3c(c2)OCCO3)c1	21
COc1ccc(CNC(=O)C(C)OC(=O)C23CC4CC(CC(O)(C4)C2)C3)cc1 (stereo not drawn)	12
CC(=O)Nc1cccc(CNCc2cccc(NC(C)=O)c2)c1	-1
Cc1cc(OCC(=O)N(Cc2ccco2)C2CCS(=O)(=O)C2)ccc1Cl (stereo not drawn)	22
COc1ccccc1CN1CCNC(=O)C1CC(=O)NCCC1=CCCCC1 (stereo not drawn)	13
Cc1nn(C)cc1NC(=O)c1cc2nc(-c3ccco3)cc(C(F)(F)F)n2n1	0
COc1cc(SC)ccc1C(=O)Nc1c(C)cccc1C	16
CCCNC(=S)Nc1ccc(Cl)cc1Cl	19
COc1ccc(-c2nn(-c3ccccc3)cc2CN2CCCO2)c(F)c1	17
N#Cc1ccccc1NC(=O)CSC1=Nc2ccccc2C2CC=NN12 (stereo not drawn)	6
Cc1cccc(/N=C/c2nc(-c3ccccc3Br)oc2O)n1	15
Cc1ccc(NC(=S)/N=C(\N)Nc2nc(C)c3cc(C)ccc3n2)c(C)c1	12
Cc1ccc(-c2nc(CN(Cc3cnn(C)c3)C(C)C)c(C)o2)o1	5
N=C1C(c2ccccc2)=C(O)CN1c1ccccc1	-14
CN(C)CCNc1nc2sc3c(c2c(=O)n1-c1ccccc1)CCCCC3	11
NC(=S)N/N=C1\CC(c2ccc3c(c2)OCCCO3)Oc2ccc(F)cc21 (stereo not drawn)	10
Cn1c(=O)c2c(ncn2CC(COCc2ccccc2)OCc2ccccc2)n(C)c1=O (stereo not drawn)	14
COCCn1c(C)cc(C(=O)CSc2nc3ccccc3s2)c1C	7
CCOC(=O)c1cc(-c2cc(OC)c(OC)c(OC)c2)nc2c1c(=O)[nH]c(=O)n2Cc1ccccc1	14
COc1ccc(N2C(=O)C3CCCN3C2c2ccc(C)o2)cc1 (stereo not drawn)	9
CCOc1ccc(C(=O)Nc2ccccc2C(=O)O)cc1	2
O=C(Cn1cncn1)N1CCN(c2ccc(F)cc2)CC1	15
O=C1[C@@H]2C(c3cccnc3)=NO[C@@H]2C(=O)N1c1ccc(Br)cc1	22
CC(C)Oc1ccc(C(CC(=O)O)c2ccc(F)cc2)cc1 (stereo not drawn)	17
CCCc1ccc(C(=O)Cn2nc(C(=O)O)c3ccccc3c2=O)cc1	-1
CN(C)/C=N/NC(=O)c1ccccc1	4
Cc1cccc(Oc2nc(-c3ccccn3)nc3ccccc23)c1	7
O=c1cc(-c2ccc(Cl)cc2)[nH]c2ccccc12	0
O=c1c2ccccc2nc(-c2ccccc2)n1/N=C/c1ccc([N+](=O)[O-])cc1	10
COc1ccc(CNC(=O)OCCN2CCN(Cc3ccccc3)CCC2=O)cc1	6
O=C(CSc1nnc(-c2ccc(O)cc2)n1Cc1ccccc1)NNC(=O)c1ccc(Br)cc1	18
NC(=NC(=O)c1cccc(C(F)(F)F)c1)c1ccc(C(F)(F)F)cn1	7
COc1cc(CNC2CCCCCCC2)cc(Br)c1OCC#N	9
CCCC(C)NC(=O)c1ccccc1SC (stereo not drawn)	10
O=C(CCCN1C(=O)/C(=C\c2ccccc2)SC1=S)Nc1ccccc1O	30
Cc1ccc(C)c2[nH]c(=O)c(CCNC(=O)c3cccs3)cc12	15
NC(=O)NC(=O)COC(=O)/C=C/c1cccs1	22
COc1ccc(CCn2ccc(O)c(Cc3ccc(Cl)cc3Cl)c2=O)cc1OC	16
Cc1ccc(C(=O)C(NC(=O)c2ccco2)Nc2sc3c(c2C(N)=O)CCCC3)cc1 (stereo not drawn)	15
CC(=O)Nc1ccc(S(=O)(=O)NC2(C(F)(F)F)C(=O)Nc3c2c(=O)[nH]c(=O)n3Cc2cccnc2)cc1 (stereo not drawn)	13
O=C(NC1CCCCCC1)c1ccc[nH]c1=S	9
O=C(N/N=C/c1ccc([N+](=O)[O-])cc1)c1cccs1	13
COc1ccc(N2CCN(Cc3nc4c(c(=O)[nH]c(=O)n4C)n3Cc3cccc(Cl)c3)CC2)cc1	24
Nc1cc(Cl)ccc1C(=O)OCC(=O)N1CCOCC1	16
O=C(NCc1ccccc1Cl)c1cccc(NC(=O)c2ccccc2)c1	10
CCOC(=O)C=Nc1c(N)n(C)c(=O)n(C)c1=O	6
Cc1ccc(S(=O)(=O)N(C)c2c(C)ccc(S(=O)(=O)Nc3ccncc3)c2C)cc1	5
Cn1cc(/C=N/NC(=O)c2cc3cc(Br)ccc3o2)c2ccccc21	0
COc1ccc(C2CC(=O)C(C(c3ccc(O)cc3)C3C(=O)CC(c4ccc(OC)cc4)CC3=O)C(=O)C2)cc1 (stereo not drawn)	13
CN1CCN(CCOc2ccc(Cl)c(Cl)c2)CC1	12
COc1ccc(OC(C)C(=O)Nc2ccc([N+](=O)[O-])cc2)cc1 (stereo not drawn)	8
O=c1c2ccccc2cnn1Cc1n[nH]c(=S)n1-c1ccccc1Cl	13
CCOc1cc(CNCc2ccccn2)ccc1OCC(=O)NC(C)(C)C	24
COc1ccc(-c2cc3nc(C)cc(N4CC(C)CC(C)C4)n3n2)cc1 (stereo not drawn)	5
C/C(CC(=O)Nc1cccc(Cl)c1C)=N\NC(=O)C(=O)NCC(C)C	15
CSc1nnc(C)c(=O)n1COC(=O)COc1ccc2ccccc2c1	15
COc1cc(/C=N/NC(=O)CCNC(=O)c2ccccc2Cl)ccc1O	6
C=CCNC(=S)NNC(=O)c1ccc([N+](=O)[O-])cc1	8

(list continues)
SMILES	Calb biofilm kill
CCCC(C)NC(=O)c1sc2nc3n(c(=O)c2c1C)CCC3 (stereo not drawn)	21
COc1ccc(NC(=O)CN2C(=O)CSC(C)C2=O)c(OC)c1 (stereo not drawn)	0
O=C(CCCn1cnc([N+](=O)[O-])n1)Nc1cc(Cl)ccc1O	26
CC1(C)SC2[C@H](NC(=O)C(NC(=O)N3CCNC3=O)c3ccccc3)C(=O)N2C1C(=O)O (stereo partly drawn)	10
N#Cc1cccc(NC(=O)Cn2c3[n+](c4ccc(C(F)(F)F)cc42)CCCCC3)c1	12
Cn1c(=O)c2c(ncn2CC(O)CO)n(C)c1=O (stereo not drawn)	19
O=C(CN1CCOCC1)Nc1ncc(Cc2cccc(Cl)c2)s1	20
N[C@@H](CO)c1nnc([C@H](CC(=O)O)NC(=O)C2CCNCC2)o1	14
O=C1C(=O)N(CCN2CCOCC2)C(c2cccnc2)/C1=C(/O)c1ccc(Cl)cc1 (stereo not drawn)	20
O=C(c1ccc(Cl)c(S(=O)(=O)N2CCCC2)c1)N1CCN(c2ncccn2)CC1	14
O=C(O)CSCC(=O)NC1CCCc2ccccc21 (stereo not drawn)	12
COc1ccccc1/C=N/NC(=O)c1ccc(NC(=O)c2ccccc2Br)cc1	0
Cn1nc(-c2ccccc2)cc1NC(=O)Nc1ccc(F)cc1	6
O=C(Nc1ccc(-c2nc3ccccc3s2)cc1)C1=COCCO1	16
COC(=O)C1(C)Nc2ccccc2C(=O)N1c1ccccc1OC (stereo not drawn)	17
CCN1CCN(c2nc3ccccc3n3cnnc23)CC1	4
COC(=O)c1ccc(COc2ccc(/C=N/Nc3cccc(C(=O)O)c3)cc2)cc1	13
CCOC(=O)c1c(NC(=O)c2ccncc2)sc(C)c1C	20
O=C(c1ccccc1)N1CCN(c2ccc([N+](=O)[O-])c(NCC3CCCO3)c2)CC1 (stereo not drawn)	3
CC(C)(C)NC(=O)C(c1ccc(O)cc1)N(Cc1ccco1)C(=O)Cn1nnc(-c2cccs2)n1 (stereo not drawn)	7
